# Screens: PubChem, National Center for Advancing Translational Sciences (NCATS)
# Sfp PPTase inh – qHTS Assay for Inhibitors of Bacillus subtilis Sfp phosphopantetheinyl transferase (PPTase); 310,000 tested, 3.5% active; Potency, µM, inactives show max response, negative = inhibition, most hits filed as inhibitors; AID 1490, 2009; Biochemical Sfp PPTase activity, qHTS; active = well fitted inhibition curve with a large enough effect; inconclusive = small, poorly fitted or top-dose-only effect, or another doubt; inactive = no such curve, though single readings can be large or run the other way;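 note: the enzyme is Sfp with the accession as filed and its product quenches rhodamine fluorescence; potency is the fitted concentration of half-maximal effect; 0% = enzyme reaction without inhibitor and -100% = no enzyme wells; top concentration of the series not given in the record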
#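 Buffer: 50 mM Hepes-Na pH 7.6, 10 mM MgCl2, 0.01% Nonidet P-40, 0.01% BSA. Enzyme 15 nM, pre-exposed to compound 15 min; substrates then added and fluorescence change tracked over 30 min.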
# gsp ag – qHTS for Agonist of gsp, the Etiologic Mutation Responsible for Fibrous Dysplasia/McCune-Albright Syndrome: qHTS; gsp mutant cells, cAMP HTRF, 30 min; control for the full effect not named in the record; Potency, µM (highest dose often 76.9 µM), for the others: top-dose activation (cAMP increase), most hits filed as activators; 340,000 tested, 0.13% active; active = well fitted activation curve with a large enough effect; inconclusive = small, poorly fitted or top-dose-only effect, or another doubt; inactive = no such curve, though single readings can be large or run the other way; cell line not stated here;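 note: phosphodiesterase inhibitor Ro 20-1724 added with compounds to block cAMP breakdown; potency is the fitted concentration of half-maximal effect; nearly all actives have a fitted effect of over 60% in size; about a fifth of the inactives were tested at one dose only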
#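 Cells in DMEM/10% FBS with G418 were pretreated with compounds in DMSO plus […] (300 uM stock) for 30 min at 37C. cAMP was measured by HTRF (cAMP-d2 plus anti-cAMP antibody-K) after 30 min at room temperature.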
# ClpP mod – qHTS Assay for Activators of ClpP. 340,000 tested, 1.9% active. ATP-dependent Clp protease proteolytic subunit (Bacillus subtilis (strain 168)), P80244. AID 651965, 2013. Potency, µM (top dose mostly 57.5 µM), without a hit: top-dose activity change, negative = active. purified B. subtilis ClpP, FRET peptide cleavage, 20 min; active = well fitted falling curve with a large enough effect; inconclusive = small, poorly fitted or top-dose-only effect; inactive = no such curve, though single readings can be large or run the other way; note: potency is the fitted concentration of half-maximal effect; the source files actives as falling curves though it sought activators and does not explain the sign; nearly all actives have a fitted effect of over 65% in size; many hits overshoot -100%
# Target sequence (P80244 whole entry, looked up): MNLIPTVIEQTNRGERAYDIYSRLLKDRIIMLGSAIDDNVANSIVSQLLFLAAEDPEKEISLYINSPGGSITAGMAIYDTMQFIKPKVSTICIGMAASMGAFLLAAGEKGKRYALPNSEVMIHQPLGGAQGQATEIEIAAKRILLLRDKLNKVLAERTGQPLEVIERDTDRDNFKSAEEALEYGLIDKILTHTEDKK
#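 Purified B. subtilis ClpP, 10 microg/mL final in Tris/HCl pH8 with KCl, BSA, glycerol and Tween-20, cleaved an Abz/nitrotyrosine-quenched decapeptide. Fluorescence (ex 320, em 430) was read at 0 and 20 min at room temperature. Delta was normalized to 5.8 microM ADEP and DMSO/no-enzyme controls.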
# TRPV1 PAM – HTS Assay for Compounds that Act as Potentiators of the Vanilloid Receptor 1; 320,000 tested, 0.02% active; potentiation, % at 8.33 µM; Transient receptor potential cation channel subfamily V member 1 (Homo sapiens), Q8NER1; TRPV1-expressing cells, Fluo-8 calcium influx, capsaicin EC20 potentiation; host cell line not named in the record; control for the full effect not named in the record; active means potentiation above 80%; inconclusive means 30% to 80%; inactive means below 30%; note: 0% is about no effect
#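 Cells expressing TRPV1 were dye-loaded with Fluo-8 and read kinetically: 10 s baseline, 3 min after compound (agonist portion), then 2 min after EC20 capsaicin (allosteric enhancer portion). Calcium-bound dye fluorescence at 480/520 nm.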
# TRPML1 inh – qHTS for Inhibitors of the Human Mucolipin Transient Receptor Potential 1 (TRPML1) | Mucolipin-1 (Homo sapiens), Q9GZU1 | TRPML1-inducible cells, Ca2+ dye fluorescence, FDSS; active compounds read low; inhibition of EC80 agonist-evoked calcium signal | activity change, negative = inhibition, % (no concentration beside the values) | 390,000 tested, 0.02% active | AID 624415, 2012; in the data active means activity change below about -50%; inconclusive means about -30% to -50%; inactive means above about -30%;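 note: stimulus is agonist 54-4 at its EC80 concentration; % is set by controls: 0 for no effect and ±100 for the full control effect; compound concentration not given in the record; the text of the record puts the active cut at -80%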
# Target sequence (Q9GZU1 whole entry, looked up): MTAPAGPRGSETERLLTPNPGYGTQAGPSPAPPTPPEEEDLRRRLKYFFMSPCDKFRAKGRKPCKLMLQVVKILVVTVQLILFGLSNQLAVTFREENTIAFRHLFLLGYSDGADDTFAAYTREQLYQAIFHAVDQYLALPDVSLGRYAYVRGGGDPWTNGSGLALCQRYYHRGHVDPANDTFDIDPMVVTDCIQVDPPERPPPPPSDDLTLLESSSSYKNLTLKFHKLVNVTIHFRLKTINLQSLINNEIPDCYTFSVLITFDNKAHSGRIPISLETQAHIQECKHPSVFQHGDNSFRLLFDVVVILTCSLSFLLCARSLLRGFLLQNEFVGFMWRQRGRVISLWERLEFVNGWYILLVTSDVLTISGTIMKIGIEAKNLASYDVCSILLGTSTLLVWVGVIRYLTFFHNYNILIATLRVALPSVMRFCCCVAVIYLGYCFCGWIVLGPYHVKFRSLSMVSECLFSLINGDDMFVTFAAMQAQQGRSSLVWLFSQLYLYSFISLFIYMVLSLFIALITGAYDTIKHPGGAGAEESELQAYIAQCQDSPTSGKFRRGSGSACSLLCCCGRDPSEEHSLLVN
#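 Calcium fluorescence in TRPML1-DL cells induced overnight with Tet: a 110 s read after compound pin addition, then a 110 s antagonist read after challenge with 54-4 at 4 uM final (EC80).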
# Menin-MLL FL inh – qHTS Assay for Inhibitors Targeting the Menin-MLL Interaction in MLL Related Leukemias: Competition With Fluorescein Labeled MLL-derived Peptide; Fluorescence polarization, fluorescein-MLL peptide displacement from menin; FP activity change, % at 61.4 µM; 290,000 tested, under 10 active; AID 1766, 2009; inconclusive = falling polarisation curve, or a change in total fluorescence; inactive = total fluorescence flat and polarisation flat or rising; no compound was filed as active; the % refers to the polarisation; negative = inhibition;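 note: % of control where 0% means no effect; inhibitors lower the polarisation; unlabelled MLL peptide was the positive control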
# gsp antag – qHTS for Antagonists of gsp, the Etiologic Mutation Responsible for Fibrous Dysplasia/McCune-Albright Syndrome: qHTS; AID 624288, 2012; 340,000 tested, 0.4% active; gsp-mutant cells, cAMP HTRF, 30 min; control for the full effect not named in the record; Potency, µM (titrated, usually from 76.9 µM), for inactives: at the top dose activity change, negative = inhibition, hits mostly inhibitors; active = falling curve of any shape with a large fitted effect; inconclusive = falling curve, mostly with a smaller effect; inactive = flat or rising curve; cell line not stated here;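 note: intracellular cAMP measured with PDE inhibitor Ro 20-1724 present during compound exposure; potency is the fitted concentration of half-maximal effect; % is set by controls: 0 for no effect and ±100 for the full control effect; nearly all actives have a fitted effect of over 65% in size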
#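 HTRF cAMP read-out (cAMP-d2 plus anti-cAMP antibody-K in lysis buffer, 30 min RT). Before lysis, cells are exposed to compounds with […] for 30 min at 37C in DPBS containing Ca/Mg, BSA and Tween 20.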
# * marks the source's active call; other numbers are inactive results; ? = inconclusive; · = not tested or not shown; & = joins results of further samples; [ ] = remark or other dose.
# Start of the listing, in advance:
SMILES,Sfp PPTase inh,gsp ag,ClpP mod,TRPV1 PAM,TRPML1 inh,Menin-MLL FL inh,gsp antag
Cc1cc(=O)nc2c3ccccc3n(CC(=O)NCCC3=CCCCC3)n12,-4%,?,-17%,1,-1,·,-20%
COc1cc(C)ccc1OCc1cc(C(=O)N2CCCCCC2)no1,4%,-24%,1.8%,4,0,2.6,3%
O=C(CN1CCN(S(=O)(=O)c2ccc(Br)cc2)CC1)Nc1ccc(F)cc1,20%,14%,1.0%,-8,4,7.2,-15%
O=C(NCC(c1ccco1)N1CCc2ccccc21)C(=O)Nc1ccccc1F (configuration not stated),·,-55%[inhibitor],-1.7%,2,14,·,1%
COc1cc(C(=O)COC(=O)C2CC2(Cl)Cl)cc(OC)c1OC (configuration not stated),·,18%[15.4 µM],-1.2%,·,-12,·,-2%

# The whole of this part (from the top)
SMILES,Sfp PPTase inh,gsp ag,ClpP mod,TRPV1 PAM,TRPML1 inh,Menin-MLL FL inh,gsp antag
Cc1cc(=O)nc2c3ccccc3n(CC(=O)NCCC3=CCCCC3)n12,-4%,?,-17%,1,-1,·,-20%
COc1cc(C)ccc1OCc1cc(C(=O)N2CCCCCC2)no1,4%,-24%,1.8%,4,0,2.6,3%
O=C(CN1CCN(S(=O)(=O)c2ccc(Br)cc2)CC1)Nc1ccc(F)cc1,20%,14%,1.0%,-8,4,7.2,-15%
O=C(NCC(c1ccco1)N1CCc2ccccc21)C(=O)Nc1ccccc1F (configuration not stated),·,-55%[inhibitor],-1.7%,2,14,·,1%
COc1cc(C(=O)COC(=O)C2CC2(Cl)Cl)cc(OC)c1OC (configuration not stated),·,18%[15.4 µM],-1.2%,·,-12,·,-2%
CCCCOC(=O)Nc1nnc(Cc2ccc(Cl)cc2)s1,-5%,-35%,-2.0%,-9,-17,6.3,9%
CC(OC(=O)c1cccs1)C(=O)NCc1cccs1 (configuration not stated),19%,13%,1.9%,1,5,-0.2,-7%
CCCCNc1ccc(C(CC(N)=O)NC(=O)c2cc(C)cc(C)c2)cc1[N+](=O)[O-] (configuration not stated),2%,·,1.5%,20,0,-1.8,1%
CCn1nnnc1SCCSc1nnnn1CC,25%,-33%[inhibitor],-0.5%,-4,9,-1.4,5%
COc1ccccc1CNC(=O)CSc1nc2nc(C)cc(C)n2n1,8%,8%,1.3%,-7,-5,4.5,7%
CCc1nc2cc(Cl)c(Cl)cc2nc1CC,4%,0%,·,-3,-8,-5.2,3%
Cc1nn(Cc2ccccc2)c(C)c1NC(=O)Cn1nc([N+](=O)[O-])c(Cl)c1C,10%,15%,0.3%,-4,2,1.2,-11%
CN1C(=O)C(CC(=O)NCCc2ccccc2)N(NC(=O)c2cccc(F)c2)C1=S (configuration not stated),12%,-4%[15.4 µM],-2.4%,?,-10,0.7,0%
CCC(c1nnc(SCC(=O)Nc2cc(S(C)(=O)=O)ccc2Cl)n1Cc1ccccc1)N(C)C (configuration not stated),14%,-35%[inhibitor],32µM*,2,3,-1.0,-4%
Cc1ccc(F)c([C@H]2[C@@H]3C=CCC[C@@]3(C)C(=O)N2Cc2ccccc2)c1,-5%,·,-3.3%,-11,0,1.5,-5%
N#CCc1ccc(OC(=O)c2ccncc2)cc1,·,5%,·,·,30,·,4%
Cc1oc2c(C)c(O)ccc2c(=O)c1-c1ccc2ccccc2n1,5%,5%,0.3%,0,70,2.4,11%
COc1ccc(NC(=O)C[C@H]2C(=O)N(c3ccc(OC)cc3)C[C@@H]2CSC)cc1,·,-27%,1.3%,·,-5,·,·
COc1ccc(S(=O)(=O)n2ccnc2C)c(C)c1C,9%,8%,-1.2%,-1,-5,-3.4,-26%
COc1ccc(N2CCN(C(=O)COC(=O)Cc3ccc(F)cc3)CC2)cc1,·,5%,-4.9%,-12,13,·,8%
CCOC(=O)N1CCC(NC(=O)c2oc3c(C)c(C)ccc3c2C)CC1,·,-20%,-5.3%,·,7,·,1%
O=C(NCCN1CCCC1)c1ccc2c(c1)N(Cc1ccccc1)C(=O)c1ccccc1S2(=O)=O,12%,3%,-0.1%,9,0,·,14%
CN(C)CCSc1nc(N)c2c3c(sc2n1)COC(C)(C)C3,8%,31%,-1.9%,-2,-7,0.2,10%
CC(C)C(c1nnnn1Cc1ccccc1)N1CCC(C(N)=O)CC1 (configuration not stated),15%,-5%,-1.1%,4,2,1.3,10%[15.4 µM]
Cc1ccc(S(=O)(=O)N2CCC(C(=O)Nc3ccccc3N3CCCC3)CC2)c(C)c1,·,-7%,-4.4%,17,-1,·,?
SMILES,Sfp PPTase inh,gsp ag,ClpP mod,TRPV1 PAM,TRPML1 inh,Menin-MLL FL inh,gsp antag
O=C(O)c1ccc(OS(=O)(=O)c2cccc(C(F)(F)F)c2)cc1,·,27%,1.7%,-26,0,·,-3%
COC(=O)/C=C1\NCCNC1=O,3%,5%[15.4 µM],1.4%,·,8,2.2,15%
O=C(Cc1ccc(F)cc1)NCCS(=O)(=O)N1CCN(c2ccccc2)CC1,·,?,1.2%,-21,11,·,0%
CCCCCN(C(=O)CCC(=O)OCC(=O)N(C)Cc1ccccc1C)c1c(N)n(CCCC)c(=O)[nH]c1=O,·,-15%,-9.9%,-26,-22,·,1%
COc1cc(C(=O)ONC(=O)c2ccc(OC(F)F)cc2)cc(OC)c1OC,-6%,-22%[15.4 µM],·,-7,-7,-1.9,6%
O=C(C[C@@H]1C[C@@H]2c3cc(NC(=O)C4CCOCC4)ccc3O[C@@H]2[C@H](CO)O1)NCc1ccccn1,·,-40%,1.0%,·,-6,·,·
CC(C)Oc1ccc(C(=O)OC(C)C(=O)Nc2nc(-c3cccc([N+](=O)[O-])c3)cs2)cc1 (configuration not stated),-1%,-17%,0.8%,-4,0,0.8,5%
COc1ccc(-c2cc(C#N)nc(NN)n2)cc1,-3%,1%[15.4 µM],-1.6%,5,-11,-1.9,-9%
CN(c1ccc(OCC(=O)Nc2cc(Cl)ccc2C(=O)O)cc1)S(=O)(=O)c1ccc(F)cc1,·,-18%,-8.6%,·,-18,·,-31%
C[C@H](NC(=O)c1[nH]cnc1C(=O)N[C@H](C)c1ccccc1)c1ccccc1,·,·,0.7%,?,7,·,-6%
Cc1cc(C)c2nc(-c3ccccn3)cc(C(=O)Nn3cnnc3)c2c1,-26%,4%[15.4 µM],·,23,11,-12,-2%
CCOC(=O)C(=O)NC(C)c1ccccc1 (configuration not stated),-13%,-53%[inhibitor],·,-8,-3,-2.2,12%
CN1CCN(c2nc3c(c(=O)[nH]c(=O)n3C)n2CCCSc2ncccn2)CC1,13%,?,0.0%,0,2,-2.2,6%
N=c1n(CCCOc2ccccc2Cl)c2ccccc2n1CC(N)=O,-6%,8%[15.4 µM],·,4,11,2.1,12%
O=[N+]([O-])c1ccc(CN2CCN(Cc3c[nH]c4ccccc34)CC2)cc1,?,-42%[inhibitor],·,-2,1,-4.2,14%
Cc1cc(C(C)(C)C)oc1C(=O)N1CCN(C(=O)c2oc(C(C)(C)C)cc2C)CC1,7%,-51%[inhibitor],1.0%,-6,-13,-0.2,11%
O=C(CCCSc1nc2ccccc2[nH]1)Nc1nnc(C2CC2)s1,1%,-31%[inhibitor],·,5,8,12,-4%
COc1ccc(C2c3[nH]c4ccccc4c3CCN2C(=O)c2ccc(=O)n(C)n2)c(F)c1 (configuration not stated),?,3%,·,5,?,10,5%
O=C(Nc1nnc(S(=O)(=O)N2CCCCCC2)s1)c1ccc(Cl)cc1,14%,-8%,-6.0%&0.5%,18,20&11,·,2%
Cc1ccc2c(CC(=O)OC(C)C(=O)NCc3ccc4c(c3)OCO4)coc2c1 (configuration not stated),-12%,18%,-0.5%,?,-2,2.6,?
Cc1cc(Nc2ccccc2N2CCOCC2)n2ncnc2n1,-5%,11%,-1.6%,3,29,-1.0,4%
CC1(C)Oc2ccc(C(=O)N3CCCCC3)cc2N(CC(=O)NCc2ccccc2)C1=O,2%,9%,-1.2%,3,-2,-4.4,3%
O=C(CN1CCN(c2ccccc2)CC1)Nc1ccc(F)cc1,8%,1%[15.4 µM],-0.9%,-2,-11,3.0,17%
O=C(c1ccc(Cl)cc1)N1CCc2ccccc21,23%,20%,-2.4%,17,·,-3.8,-5%

# Another view of some results above.
structure	Sfp PPTase inh	gsp ag	ClpP mod	TRPV1 PAM	TRPML1 inh	Menin-MLL FL inh	gsp antag
O=[N+]([O-])c1ccc(CN2CCN(Cc3c[nH]c4ccccc34)CC2)cc1	?	-42%[inhibitor]	·	-2	1	-4.2	14%
Cc1cc(C(C)(C)C)oc1C(=O)N1CCN(C(=O)c2oc(C(C)(C)C)cc2C)CC1	7%	-51%[inhibitor]	1.0%	-6	-13	-0.2	11%
O=C(CCCSc1nc2ccccc2[nH]1)Nc1nnc(C2CC2)s1	1%	-31%[inhibitor]	·	5	8	12	-4%

# Random draw from the library (roughly 4.9% active in at least one column).
